UUG fidelity – alters start codon recognition fidelity in yeast | S. cerevisiae UUG-firefly luciferase reporter, luminescence/redox ratio | AID 602363 | 350,000 compounds, 0.13% hits | activity score, % at 18.7 µM;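 active means replicate mean at a twofold rise or more, about +100% in these data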;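 further: firefly luciferase made from a UUG start codon reports start codon fidelity; reporter light over untreated wells divided by growth signal over untreated wells; some hits fall short of that in this replicate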
HIV Env fusion – HIV envelope-mediated fusion inhibition. 360,000 compounds, 1.1% hits. inhibition, % at 12.3 µM. HeLa-JRFL Env/CEM21 cell fusion, luciferase. AID 651610;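 active means mean replicate inhibition score of at least 50 and every replicate individually at or above 50; inconclusive means only one of the two criteria met; inactive means mean below 50 and not all replicates reaching 50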;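 further: 0% = plate neutral controls and 100% = maraviroc near 300 nM; one replicate is shown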
Active calls of the source: *; u = inconclusive; [ ] = remark or other dose.

nr	SMILES	UUG fidelity	HIV Env fusion
1	O=C(C[C@@H]1C[C@@H]2c3cc(NC(=O)CC4CC4)ccc3O[C@@H]2[C@H](CO)O1)NCc1ccccc1	-7.8	7.5[16.7 µM]
2	C[C@H](CO)N1C[C@H](C)[C@H](CN(C)S(C)(=O)=O)OCCCC[C@H](C)Oc2ccc(NC(=O)CCCN(C)C)cc2C1=O	10.0	18.9[16.7 µM]
3	C[C@@H]1CN([C@@H](C)CO)C(=O)c2cc(C#CC3CC3)cnc2O[C@H]1CN(C)C(=O)c1ccc(F)cc1	18.7	-14.6[16.7 µM]
4	C[C@H]1CN([C@@H](C)CO)C(=O)c2cc(NC(=O)Nc3ccc(C(F)(F)F)cc3)ccc2O[C@H]1CN(C)CC1CC1	13.7	7.2[16.7 µM]
5	COc1ccc(NC(=O)Nc2ccc3c(c2)CC(=O)N([C@@H](C)CO)C[C@H](C)[C@H](CN(C)C(=O)Nc2c(C)noc2C)O3)cc1	-13.5	-12.2[16.7 µM]
6	COCC#Cc1cnc2c(c1)C(=O)N([C@@H](C)CO)C[C@H](C)[C@@H](CN(C)Cc1ccc(F)cc1)O2	-10.0	-4.6[16.7 µM]
7	C[C@@H]1CCCCO[C@@H](CN(C)C(=O)c2ccncc2)[C@H](C)CN([C@H](C)CO)C(=O)c2cc(NS(=O)(=O)c3ccccc3)ccc2O1	-12.3	-5.9[16.7 µM]
8	CC(=O)N(C)C[C@H]1Oc2ncc(C#C[C@@H](C)O)cc2C(=O)N([C@H](C)CO)C[C@@H]1C	-16.4	-8.3[16.7 µM]
9	C[C@@H]1CN([C@H](C)CO)C(=O)c2cc(NC(=O)Nc3ccc4c(c3)OCO4)ccc2O[C@@H]1CN(C)S(=O)(=O)c1cccs1	-6.2	7.1[16.7 µM]
10	COc1ccc(-c2ccc([C@@H]3[C@H](C#N)N[C@H]3CO)cc2)cc1	-7.2	6.6[16.7 µM]
11	Cc1noc(C)c1S(=O)(=O)Nc1ccc2c(c1)C(=O)N([C@H](C)CO)C[C@@H](C)[C@@H](CN(C)CC1CCCCC1)OCCCC[C@H](C)O2	12.9	-5.4[16.7 µM]
12	Cc1noc(C)c1S(=O)(=O)N(C)C[C@@H]1OCCCC[C@@H](C)Oc2ccc(NC(=O)Nc3ccc(C(F)(F)F)cc3)cc2C(=O)N([C@@H](C)CO)C[C@@H]1C	-16.0	26.3[16.7 µM]
13	COc1ccc(C#Cc2cnc3c(c2)C(=O)N([C@H](C)CO)C[C@H](C)[C@H](CN(C)Cc2cccc(C)c2)O3)cc1OC	1.0	-11.1[16.7 µM]
14	N#C[C@@H]1[C@H](c2ccc(C3=CCCC3)cc2)[C@H](CO)N1C(=O)Nc1ccccc1F	-3.2	7.8[16.7 µM]
15	C[C@@H]1CN([C@@H](C)CO)C(=O)c2cc(C#Cc3cccnc3)cnc2O[C@H]1CN(C)C(=O)CC1CC1	28.3	-32.2[16.7 µM]
16	COc1ccc(NC(=O)N(C)C[C@H]2OCCCC[C@H](C)Oc3ccc(NS(=O)(=O)c4ccc(Cl)cc4)cc3C(=O)N([C@H](C)CO)C[C@@H]2C)cc1	-10.8	-21.9[16.7 µM]
17	COCC#Cc1ccc([C@@H]2[C@H](C#N)N(C(=O)c3cccnc3)[C@H]2CO)cc1	-8.7	-16.3[16.7 µM]
18	CCCNC(=O)N(C)C[C@@H]1Oc2ncc(C#Cc3ccccc3F)cc2C(=O)N([C@H](C)CO)C[C@H]1C	-7.4	-10.3[16.7 µM]
19	CC(=O)N(C)C[C@H]1Oc2cc(C#CC3CCCC3)ccc2S(=O)(=O)N([C@@H](C)CO)C[C@H]1C	3.0	-23.3[16.7 µM]
20	C[C@H]1CN([C@@H](C)CO)C(=O)c2cc(N(C)C)ccc2O[C@H]1CN(C)Cc1ccc2c(c1)OCO2	-1.1	5.6[16.7 µM]
21	COc1ccc(CN(C)C[C@H]2Oc3c(NS(=O)(=O)c4ccccc4)cccc3C(=O)N([C@H](C)CO)C[C@H]2C)cc1	-11.9	29.1[16.7 µM]
22	O=C(C[C@@H]1C[C@H]2c3cc(NC(=O)NC4CCCCC4)ccc3O[C@H]2[C@H](CO)O1)NCc1cccnc1	1.9	2.1[16.7 µM]
23	COc1ccccc1S(=O)(=O)N[C@H]1CC[C@@H](CCNC(=O)C2CC2)O[C@H]1CO	2.9	-4.4[16.7 µM]
24	CC(C)NC(=O)N(C)C[C@@H]1Oc2ncc(C#CC3(O)CCCC3)cc2C(=O)N([C@@H](C)CO)C[C@H]1C	13.2	3.9[16.7 µM]
25	CCS(=O)(=O)Nc1ccc2c(c1)C(=O)N(C)C[C@@H](OC)[C@H](C)CN(C(=O)COC)[C@H](C)CO2	2.6	u
26	COc1ccc(S(=O)(=O)Nc2ccc3c(c2)C(=O)N([C@@H](C)CO)C[C@H](C)[C@@H](CN(C)S(=O)(=O)c2ccc(Cl)cc2)O3)cc1	-2.6	-8.0[16.7 µM]
27	Cc1noc(C)c1S(=O)(=O)N(C)C[C@@H]1Oc2c(NS(=O)(=O)c3cn(C)cn3)cccc2C(=O)N([C@@H](C)CO)C[C@H]1C	-5.0	-13.1[16.7 µM]
28	COCC(=O)N(C)C[C@@H]1Oc2ncc(Br)cc2C(=O)N([C@H](C)CO)C[C@H]1C	-3.2	3.0[16.7 µM]
29	Cc1ccc(S(=O)(=O)N(C)C[C@H]2OCCCC[C@@H](C)Oc3ccc(NC(=O)c4ccncc4)cc3C(=O)N([C@H](C)CO)C[C@@H]2C)cc1	-2.4	-4.8[16.7 µM]
30	O=C(CCN1CCCCC1)N[C@H]1CC[C@@H](CCn2cc(-c3cccc(F)c3)nn2)O[C@H]1CO	-11.0	7.2[16.7 µM]
31	COCc1cn(CC[C@H]2CC[C@H](NC(=O)Nc3ccc4c(c3)OCO4)[C@H](CO)O2)nn1	-25.2	-23.5[16.7 µM]
32	Cc1noc(C)c1S(=O)(=O)Nc1ccc2c(c1)C(=O)N([C@H](C)CO)C[C@H](C)[C@H](CN(C)C(=O)c1ccncc1)OCCCC[C@@H](C)O2	-9.0	-6.8[16.7 µM]
33	O=C1c2ccccc2C(=O)N1C[C@@H]1CCCN(Cc2ccc(OCCO)cc2)C1	5.9	0.0[16.7 µM]
34	Cc1noc(C)c1S(=O)(=O)Nc1ccc2c(c1)C(=O)N([C@H](C)CO)C[C@H](C)[C@H](CN(C)C)OCCCC[C@@H](C)O2	-8.4	17.9[16.7 µM]
35	C[C@H]1CN([C@@H](C)CO)C(=O)Cc2cc(NC(=O)Nc3ccccc3)ccc2O[C@H]1CN(C)S(=O)(=O)c1cccs1	11.4	69.7*[16.7 µM]
36	CCCN(C)C[C@@H]1Oc2ncc(-c3ccccc3F)cc2C(=O)N([C@@H](C)CO)C[C@@H]1C	-26.7	6.6[16.7 µM]
37	Cc1ccc(S(=O)(=O)N(C)C[C@H]2Oc3c(NC(=O)c4ccc(-c5nccs5)cc4)cccc3C(=O)N([C@H](C)CO)C[C@H]2C)cc1	-7.8	-1.8[16.7 µM]
38	COCC#Cc1ccc2c(c1)O[C@@H](CN(C)C(=O)C1CC1)[C@H](C)CN([C@@H](C)CO)S2(=O)=O	-4.3	-4.1[16.7 µM]
39	Cc1noc(C)c1NC(=O)Nc1ccc2c(c1)C(=O)N([C@@H](C)CO)C[C@@H](C)[C@H](CN(C)C(=O)NC(C)C)OCCCC[C@H](C)O2	16.0	-18.0[16.7 µM]
40	O=C(Nc1ccc2c(c1)[C@H]1C[C@@H](CC(=O)N3CCc4ccccc4C3)O[C@@H](CO)[C@H]1O2)NC1CCCC1	-14.6	6.0[16.7 µM]
41	CC(=O)Nc1ccc2c(c1)C(=O)N(C)[C@H]1CC[C@H](CC(=O)NCc3ccc4c(c3)OCO4)O[C@H]1CO2	-0.8	22.1[16.7 µM]
42	CCCN1C[C@@H](C)[C@@H](OC)CN(C)C(=O)c2cc(NC(=O)c3ccno3)ccc2OC[C@H]1C	-0.8	-11.0[16.7 µM]
43	C[C@H](CO)N1C[C@H](C)[C@H](CN(C)S(C)(=O)=O)Oc2ccc(NS(=O)(=O)c3cccs3)cc2CC1=O	1.7	-3.9[16.7 µM]
44	C[C@H](CO)N1C[C@H](C)[C@@H](CN(C)C(=O)Nc2ccc3c(c2)OCO3)OCCCC[C@H](C)Oc2ccc(NS(C)(=O)=O)cc2C1=O	-4.1	-25.0[16.7 µM]
45	CC(C)NC(=O)N(C)C[C@H]1OCCCC[C@@H](C)Oc2ccc(NS(=O)(=O)c3ccc(Cl)cc3)cc2C(=O)N([C@@H](C)CO)C[C@@H]1C	9.0	-9.9[16.7 µM]
46	CCc1cnc(N2[C@@H](C#N)[C@H](c3ccc(C4=CCCC4)cc3)[C@@H]2CO)s1	14.9	13.7[16.7 µM]
47	C[C@@H]1CN([C@H](C)CO)C(=O)c2cccc(NC(=O)Nc3ccc(C(F)(F)F)cc3)c2O[C@@H]1CN(C)Cc1ccccc1	-8.0	-9.4[16.7 µM]
48	C[C@H]1CN([C@@H](C)CO)C(=O)Cc2cc(NC(=O)Cn3cnnn3)ccc2O[C@H]1CN(C)S(=O)(=O)c1ccccc1	2.8	27.8[16.7 µM]
49	C[C@@H]1CCCCO[C@@H](CN(C)Cc2ccc(Cl)c(Cl)c2)[C@H](C)CN([C@H](C)CO)C(=O)c2cc(NC(=O)c3ccccc3)ccc2O1	4.9	23.8[16.7 µM]
50	O=C(NCC[C@H]1CC[C@@H](NS(=O)(=O)Cc2ccccc2)[C@H](CO)O1)C1CCCCC1	20.9	20.6[16.7 µM]

(continued)
nr	SMILES	UUG fidelity	HIV Env fusion
51	C[C@@H]1CN([C@H](C)CO)C(=O)c2cc(NC(=O)NC3CCCCC3)ccc2O[C@@H](C)CCCCO[C@H]1CN(C)S(=O)(=O)c1ccc(Cl)cc1	-0.7	u
52	C[C@@H]1CN([C@@H](C)CO)C(=O)c2cccc(NS(=O)(=O)c3ccccc3)c2O[C@H]1CN(C)S(=O)(=O)c1ccc(F)cc1	-8.3	3.4[16.7 µM]
53	C[C@H]1CN([C@@H](C)CO)C(=O)c2cc(/C=C/c3ccccc3)cnc2O[C@@H]1CN(C)S(=O)(=O)c1cn(C)cn1	-6.8	35.5[16.7 µM]
54	C[C@H](CO)N1C[C@H](C)[C@@H](CN(C)C(=O)c2cccc(F)c2)Oc2ncc(C3=CCCCC3)cc2C1=O	18.6	5.9[16.7 µM]
55	C[C@@H]1CCCCO[C@H](CN(C)Cc2ccccc2)[C@H](C)CN([C@H](C)CO)C(=O)c2cc(NS(=O)(=O)c3ccccc3)ccc2O1	11.3	-12.9[16.7 µM]
56	C[C@@H]1CN([C@H](C)CO)C(=O)c2cccc(NS(=O)(=O)c3ccc(Cl)cc3)c2O[C@@H]1CN(C)CC1CCCCC1	0.7	-4.3[16.7 µM]
57	CCCNC(=O)N1C[C@@H](O)COC[C@H]2O[C@H](CC(=O)NCc3ccc(Cl)c(Cl)c3)CC[C@@H]21	0.6	13.7[16.7 µM]
58	CNC[C@@H]1Oc2ncc(-c3cccc(C(F)(F)F)c3)cc2C(=O)N([C@H](C)CO)C[C@@H]1C	-5.9	8.6[16.7 µM]
59	C[C@@H]1CCCCO[C@@H](CN(C)Cc2ccccc2)[C@H](C)CN([C@@H](C)CO)C(=O)c2cc(NC(=O)c3ccccc3)ccc2O1	1.9	-7.0[16.7 µM]
60	COc1ccc(CN(C)C[C@@H]2OCCCC[C@H](C)Oc3ccc(NS(=O)(=O)c4ccccc4)cc3C(=O)N([C@H](C)CO)C[C@H]2C)cc1	10.2	-11.3[16.7 µM]
61	CC(C)C#Cc1ccc2c(c1)O[C@@H](CN(C)S(C)(=O)=O)[C@H](C)CN([C@H](C)CO)S2(=O)=O	5.3	0.6[16.7 µM]
62	C[C@@H]1CN([C@@H](C)CO)C(=O)c2cc(C#CC(C)(C)O)cnc2O[C@@H]1CN(C)C(=O)C1CC1	8.3	-5.3[16.7 µM]
63	Cc1noc(C)c1S(=O)(=O)Nc1ccc2c(c1)CC(=O)N([C@@H](C)CO)C[C@@H](C)[C@H](CN(C)C(=O)NC(C)C)O2	0.5	9.8[16.7 µM]
64	C[C@@H]1CN([C@@H](C)CO)C(=O)Cc2cc(NC(=O)CCC(F)(F)F)ccc2O[C@H]1CN(C)S(=O)(=O)c1cccs1	10.7	7.1[16.7 µM]
65	Cc1noc(C)c1S(=O)(=O)N(C)C[C@@H]1OCCCC[C@@H](C)Oc2ccc(NC(=O)NC3CCCCC3)cc2C(=O)N([C@@H](C)CO)C[C@@H]1C	-9.7	-16.4[16.7 µM]
66	COc1ccccc1NC(=O)N[C@@H]1CC[C@@H](CCNC(=O)Cc2ccccn2)O[C@H]1CO	16.2	-2.3[16.7 µM]
67	C[C@@H]1CN([C@H](C)CO)C(=O)c2cc(NC(=O)Nc3ccccc3)ccc2O[C@@H](C)CCCCO[C@@H]1CN(C)C(=O)C1CCCCC1	5.8	-16.7[16.7 µM]
68	C[C@@H]1CN([C@@H](C)CO)C(=O)c2cc(-c3ccccc3F)cnc2O[C@H]1CN(C)Cc1ccccc1F	21.5	5.4[16.7 µM]

An excerpt of these results, as labelled records.
62. C[C@@H]1CN([C@@H](C)CO)C(=O)c2cc(C#CC(C)(C)O)cnc2O[C@@H]1CN(C)C(=O)C1CC1
  UUG fidelity: 8.3	HIV Env fusion: -5.3[16.7 µM]

61. CC(C)C#Cc1ccc2c(c1)O[C@@H](CN(C)S(C)(=O)=O)[C@H](C)CN([C@H](C)CO)S2(=O)=O
  UUG fidelity: 5.3	HIV Env fusion: 0.6[16.7 µM]

56. C[C@@H]1CN([C@H](C)CO)C(=O)c2cccc(NS(=O)(=O)c3ccc(Cl)cc3)c2O[C@@H]1CN(C)CC1CCCCC1
  UUG fidelity: 0.7	HIV Env fusion: -4.3[16.7 µM]

Source: PubChem BioAssay

Some of the compounds tested; rates above refer to the full screens.
